FGF22 binding: FGF22 (human) thermal shift binding | Q9HCT0 | recombinant FGF22 thermal shift, SYPRO orange fluorescence; percent of sucrose octasulfate shift, DMSO zero | calls only at 9.99 µM | 340,000 compounds, 1.5% hits | AID 651658;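 active = melting point raised past a set limit in the mean and every replicate; three in four hits are not shown here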
Ecoli growth: blocks Escherichia coli growth | OD600, 23 h; hits give low values | OD600 absorbance (concentration not given with the values) | 330,000 compounds, 0.21% hits | AID 1053175;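 active = OD600 absorbance below the run mean of sample wells minus 3.6 SD, in any replicate, cut at about 0.56 in these data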;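 also: stock transfer was 300 nL into about 60 µL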
B2AR ag: human beta-2 adrenergic receptor agonism by FAP. 340,000 compounds, 0.43% hits. Am2.2-beta2AR cells, FAP receptor internalization, flow cytometry; reference of the scale not given here. response, % (test concentration not listed). P07550;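 active = response above a set limit, near 3 SD of response in nonfluorescent compounds, cut at about 42% in these data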;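 also: stock transfer was 100 nL into about 11 µL; a reference agonist was the positive control; negative values mostly stem from fluorescent compounds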
LANA-H2B inh: blocks KSHV LANA binding to histone H2A/H2B. 320,000 compounds, 0.6% hits. inhibition, % (test concentration not listed). AID 2629. Q9QR71. cell-free LANA-H2A/H2B peptide, fluorescence polarization; in the data active = inhibition mostly above about 10%, no sharp cut-off; inactive = mostly below about 6.7%;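 also: stock transfer was 7.5 nL into about 10 µL; 0% = median of vehicle wells and 100% = median of positive control wells; one replicate is shown; the record names a cut of 25% in any replicate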
Target sequence (Q9QR71 whole entry, looked up): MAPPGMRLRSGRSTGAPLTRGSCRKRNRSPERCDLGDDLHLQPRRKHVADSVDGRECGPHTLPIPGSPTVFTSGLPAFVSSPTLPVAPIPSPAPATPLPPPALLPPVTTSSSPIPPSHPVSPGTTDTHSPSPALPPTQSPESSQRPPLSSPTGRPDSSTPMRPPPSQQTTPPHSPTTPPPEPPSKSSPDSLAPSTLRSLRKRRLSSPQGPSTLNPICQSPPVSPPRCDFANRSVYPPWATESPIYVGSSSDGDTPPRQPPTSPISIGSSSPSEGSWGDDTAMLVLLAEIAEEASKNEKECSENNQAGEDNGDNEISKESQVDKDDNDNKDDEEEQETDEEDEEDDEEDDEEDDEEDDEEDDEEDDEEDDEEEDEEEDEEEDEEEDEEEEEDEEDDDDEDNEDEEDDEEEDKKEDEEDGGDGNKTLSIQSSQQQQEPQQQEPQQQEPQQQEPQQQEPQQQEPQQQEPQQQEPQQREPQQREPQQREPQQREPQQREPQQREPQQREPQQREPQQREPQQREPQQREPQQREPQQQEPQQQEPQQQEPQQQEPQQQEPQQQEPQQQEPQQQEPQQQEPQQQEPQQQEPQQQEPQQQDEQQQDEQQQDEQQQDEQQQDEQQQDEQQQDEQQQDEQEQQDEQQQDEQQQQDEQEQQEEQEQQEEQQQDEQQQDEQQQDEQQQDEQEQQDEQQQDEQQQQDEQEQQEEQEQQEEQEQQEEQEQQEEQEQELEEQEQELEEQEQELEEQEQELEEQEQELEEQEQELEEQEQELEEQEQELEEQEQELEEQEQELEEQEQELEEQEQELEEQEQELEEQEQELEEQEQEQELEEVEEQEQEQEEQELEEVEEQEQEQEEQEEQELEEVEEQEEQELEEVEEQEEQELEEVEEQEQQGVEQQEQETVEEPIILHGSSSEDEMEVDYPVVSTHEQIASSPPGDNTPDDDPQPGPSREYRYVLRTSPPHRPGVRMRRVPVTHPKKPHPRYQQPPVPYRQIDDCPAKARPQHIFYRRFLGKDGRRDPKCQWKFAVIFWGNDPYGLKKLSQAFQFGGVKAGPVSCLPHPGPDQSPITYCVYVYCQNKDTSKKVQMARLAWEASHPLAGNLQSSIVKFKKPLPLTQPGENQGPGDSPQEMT
UCH37 DUB inh: blocks the human deubiquitinase UCH37 | Q9Y5K5 | AID 588478 | 330,000 compounds, 0.33% hits | purified proteasome/UCH37, Ub-AMC cleavage fluorescence | inhibition, % (no concentration beside the values);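 active = mean of two replicates above 20%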;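 also: 0% = compound-free wells with enzyme and 100% = wells lacking proteasome; stock transfer was 100 nL into about 20 µL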
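Reagent: Ub-AMC substrate; assay system: Proteasome-associated human UCH37 deubiquitinase; controls: no-proteasome and no-compound wells; read-out: % inhibition of Ub-AMC cleavage fluorescence; timing: 30 min preincubation with enzyme, 25 min cleavage at room temperature; signal: AMC fluorescence from Ub-AMC cleavage, excitation 355 nm, emission 460 nm; buffer or medium: Tris-HCl pH 7.4 plus ovalbumin, ATP-MgCl2, DTT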
HNF4A DNA FP: change in binding of human HNF4 alpha to DNA | HNF4a-FITC DNA binding, fluorescence polarization, 1 h | P41235 | 360,000 compounds, 0.3% hits | activity change, % at 10 µM; in the data active = activity change above about 30%, passing the limit was not always enough;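 also: controls were the assay level and a saturating level of protein; the project sought stronger binding though the title names inhibitors; some compounds called inactive have numbers as strong as hits; positive values seem to mean higher polarization but the record does not say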
ALR inh: human ALR oxidase inhibition via reduced H2O2. purified ALR, DTT oxidation, H2O2 HRP-luminol luminescence. inhibition, % (test concentration not listed). 290,000 compounds, 3.8% hits. P55789;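 active = mean and each replicate at 75% or more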;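 also: stock transfer was 7.5 nL into about 7.5 µL; 0% = neutral wells and 100% = wells with inactivated enzyme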
* marks the source's active call; other numbers are inactive results; i = inactive; x = no result given. Some of the compounds tested; count on the stated rates, not on these rows.

FGF22 binding,Ecoli growth,B2AR ag,LANA-H2B inh,compound,UCH37 DUB inh,HNF4A DNA FP,ALR inh
i,0.694,-2.4,-1.8,O=C1c2ccccc2C(=O)N1c1ccc(S(=O)(=O)N2CCCCC2)cc1,-0.7,2.8,x
x,0.635,-11.2,-7.1,O=c1c2c(-c3ccc(Cl)cc3)csc2nc2n1CCC2,2.4,1.8,-4.5
x,x,-4.4,-2.9,Cc1[nH]c(C(=O)N/N=C/c2ccc(C(=O)O)cc2)c(C)c1C(=O)N/N=C/c1ccc(C(=O)O)cc1,x,0.4,-27.9
i,0.667,-0.7,-4.6,CCOC(=O)C1(Cc2ccccc2)CCCN(S(=O)(=O)N(C)C)C1 (centres undefined),3.5,-8.3,x
x,0.722,-12.9,-5.0,Nc1ccc(-c2nc3ccccc3[nH]2)cc1,-118.2,3.0,98.1*
i,0.651,0.5,-2.8,CCOC(=O)CN1C(=N)N(c2nc(NC(C)C)nc(OC)n2)CC1=O,4.2,4.9,-9.6
i,0.592,2.4,3.2,O=C1CC(c2cccc(O)c2)Oc2ccccc21 (centres undefined),0.6,-0.2,x
x,0.718,-2.5,-6.1,Cc1nn(-c2cc(C)c3ccccc3n2)c2c1C1C(C2)C1(C)C (centres undefined),-41.2,-2.5,-3.2
x,0.74,1.9,-8.3,CC(C)c1ccc(S(=O)(=O)N2CCN(C(=S)NCc3ccco3)CC2)cc1,5.9,1.4,x
i,0.611,-4.0,-4.5,CC(C(=O)NC1CCCCCC1)c1ccc([N+](=O)[O-])cc1 (centres undefined),1.1,-0.3,0.3
i,0.651,3.0,-1.6,CN1CCN(C(=O)CCN2C(=O)/C(=C\c3ccccc3F)SC2=S)CC1,4.2,-3.8,-12.0
i,0.681,-9.9,0.9,COc1ccc(Cl)cc1C(=O)Nc1nc(C)cc(C)n1,-0.7,-2.2,18.8
i,x,90.4*,3.9,Cn1cc(C(=O)c2ccc(Cl)cc2Cl)cc1C(=O)N/N=C(\N)COc1ccc(Cl)cc1,x,-2.3,x
i,0.763,-10.1,10.9,CC(C)CCn1c(CN2CCN(C(=O)c3ccco3)CC2)nc2c1c(=O)n(C)c(=O)n2C,2.9,-2.3,-1.1
x,0.684,-16.6,0.8,Cc1noc(/C=C/c2ccco2)c1S(=O)(=O)N1CCC(C(=O)N2c3ccccc3CC2C)CC1 (centres undefined),2.3,44.4*,-10.8
i,0.694,6.1,0.4,c1ccc2sc(NC3=NCN(CCN4CCOCC4)CN3)nc2c1,1.4,-2.0,x
x,0.736,-3.1,-3.5,COc1ccccc1/C=C(/CC(=O)NCc1ccc2c(c1)OCO2)c1nc2ccccc2s1,0.4,0.7,-2.9
i,0.644,6.9,14.2,CCC1=[N+](C)c2cccc3cccc(c23)N1C,5.0,-2.0,63.2
x,0.649,1.1,7.0,CCc1nnc(/N=C/c2c(O)n(-c3ccc(Cl)cn3)c(=O)c3ccccc23)s1,-8.6,4.9,2.8
i,x,-4.7,7.1,O=C(N/N=C/c1ccc(OC(=O)c2ccco2)cc1)c1ccccn1,x,3.5,11.8
x,0.655,3.4,7.4,O=C(Cc1ccccc1)Nc1nc(-c2cccs2)cs1,0.9,-1.9,-48.6
i,0.7,2.6,x,O=C(CN1CCCC1c1cccs1)N1CCN(S(=O)(=O)c2ccccc2)CC1 (centres undefined),2.4,-1.6,x
i,0.668,5.9,2.5,COc1ccc(-c2[nH]nc3oc(=O)c(CCO)c(C)c23)cc1,5.7,2.0,12.3
i,0.726,-0.7,5.5,O=C(/C=C/c1ccco1)Nc1ccccc1C(=O)Nc1cccc(C(=O)O)c1,7.2,-11.4,x
i,0.668,7.9,-4.9,O=C(O)/C=C/c1cn(-c2ccccc2)nc1-c1ccccc1,5.1,-1.9,1.5
i,0.673,20.6,-6.3,CC(C)N1CC(C(=O)Nc2ccc(S(=O)(=O)N3CCCCC3)cc2)CC1=O (centres undefined),-0.8,0.6,0.7
i,0.716,1.5,-7.4,O=C(Nc1ccc(S(=O)(=O)Nc2nccs2)cc1)c1ccc(N2C(=O)c3ccccc3C2=O)cc1,-1.3,53.3*,-4.8
x,x,3.0,-5.6,C#CCn1c(=NC(=O)c2sc3ccccc3c2Cl)sc2cc(S(N)(=O)=O)ccc21,-6.2,-3.3,-6.7
x,0.675,9.1,-2.9,Cn1c(C(=O)NC2CCCCC2)cc2sccc21,6.8,1.2,-4.2
x,0.678,0.4,1.2,O=C(NCc1ccc2c(c1)OCO2)c1nn(-c2ccccc2)c(=O)c2ccccc12,0.5,-0.1,-1.7

The closing 2 compounds of the section above are carried over, then new ones follow:
FGF22 binding,Ecoli growth,B2AR ag,LANA-H2B inh,compound,UCH37 DUB inh,HNF4A DNA FP,ALR inh
x,0.675,9.1,-2.9,Cn1c(C(=O)NC2CCCCC2)cc2sccc21,6.8,1.2,-4.2
x,0.678,0.4,1.2,O=C(NCc1ccc2c(c1)OCO2)c1nn(-c2ccccc2)c(=O)c2ccccc12,0.5,-0.1,-1.7
x,0.699,7.5,-0.7,COc1ccccc1N1CCN(c2nc(C)nc3c2oc2ccccc23)CC1,-27.6,-0.1,5.1
i,0.707,2.8,5.4,CC(C)n1cnnc1SCC(=O)NNC(=O)COc1ccc(Cl)cc1,3.1,6.0,-4.1
i,0.681,-5.0,5.3,Cc1ccc(NC(=O)c2cc(=O)[nH]c3ccccc23)cc1C,5.8,3.6,4.4
i,0.712,-14.6,-7.9,COc1cc2c(cc1OC)-c1nnc(-c3cccs3)n1C(C)(C)C2,4.7,0.3,x
i,0.65,3.1,-3.7,O=C(Nc1c(F)cccc1F)C1CCN(C(=O)c2cccs2)CC1,2.0,1.9,0.6
i,0.714,0.6,5.7,O=C(O)CCCn1cc(NC(=O)c2ccc(F)cc2)cn1,1.9,-0.9,-24.6
i,0.723,-1.1,-9.5,Cc1ccc(OCCC(=O)OCC(=O)Nc2ccc(C)cc2Cl)cc1,5.3,2.9,-7.5
i,0.694,2.7,-12.7,CCOC(=O)NNC1CC(=O)N(c2ccccc2)C1=O (centres undefined),0.9,-1.4,-2.8
i,0.723,-1.2,x,COc1ccc(CNC(=O)CN2C(=O)NC3(CCCc4sccc43)C2=O)cc1 (centres undefined),0.7,2.0,x
i,0.677,-2.9,-3.7,Cc1cc(NS(=O)(=O)c2ccc(NC(=O)Cc3ccc([N+](=O)[O-])cc3)cc2)no1,1.9,2.3,0.3
i,0.654,-8.7,x,COC(=O)C1=C(C)NC(C)=C(C(=O)OC)C1C(=O)OCC(=O)N1CCCCC1C (centres undefined),-24.0,0.4,x
i,x,10.2,6.8,COc1cc(/C=N/n2c(-c3ccccc3)n[nH]c2=S)cc(OC)c1OC,x,-0.8,17.5
i,0.706,8.8,-0.1,COc1cc(OC)c(C(=O)OCN2C(=O)c3ccccc3C2=O)cc1OC,0.9,0.9,-5.2
x,0.689,3.5,-5.5,CN1CCN(NS(=O)(=O)c2cccs2)CC1,-1.4,-1.8,26.6
x,0.76,-0.8,-1.6,O=C(O)c1ccc(-c2sc(Nc3ccccc3)n[n+]2-c2ccc(F)cc2)cc1,1.0,0.9,6.0
i,0.72,-7.9,-7.3,C=CCOc1ccc(CN(C)C(=O)CN2C(=O)c3ccccc3C2=O)cc1,3.2,-0.1,x
i,0.718,1.2,0.4,O=C(O)CSc1nnc(CNc2ccc(F)cc2)n1-c1ccccc1,1.5,3.3,x
i,0.711,4.0,-2.1,CC(NC(=O)C12CC3(C)CC(C)(CC(C)(C3)C1)C2)C(=O)O (centres undefined),0.1,-1.5,-0.8
i,0.597,1.6,3.0,O=C(CN1CCN(c2cccc(C(F)(F)F)c2)CC1)NCc1ccccc1,2.2,2.3,-6.4
i,0.654,-6.5,0.2,NCCN1C(=O)S/C(=C\c2ccc3c(c2)OCO3)C1=O,7.4,1.9,92.4*
i,0.727,5.7,-1.2,NS(=O)(=O)c1ccc(Nc2nc(-c3cccc([N+](=O)[O-])c3)cs2)cc1,3.8,-5.0,0.0
x,0.725,6.2,0.6,CCSc1nc(-c2ccc(OC)cc2)ccc1C#N,-74.9,3.5,-25.2
i,0.678,0.2,4.3,CCOC(=O)C1(Cc2cccc(F)c2)CCN(Cc2c(C)nn(CC)c2C)CC1,-1.8,2.8,-4.0
x,0.692,-6.1,-4.3,CC1CCc2cc(F)ccc2N1S(=O)(=O)c1ccc(Cl)nc1 (centres undefined),0.9,1.6,26.1
i,0.721,0.7,-3.8,COc1ccc(/C=C/C(=O)NC(CCSC)C(=O)O)cc1 (centres undefined),5.2,2.4,-1.5
i,0.673,4.2,1.3,COc1ccc(CC(=O)N[C@@H](CCSC)c2nc3ccccc3[nH]2)cc1,2.3,-1.3,-2.2
i,0.708,2.7,2.5,COc1cc(/C=C(\C#N)C(=O)Nc2ccccn2)ccc1O,12.5,9.6,9.3
x,0.626,4.2,-1.3,COC(=O)Nc1c(C)n(C)n(-c2ccccc2)c1=O,1.4,4.0,-1.2
x,0.729,-3.0,1.9,CN(c1ccc(OCC(=O)Nc2ccc3[nH]c(=O)[nH]c3c2)cc1)S(=O)(=O)c1ccc(Cl)cc1,-0.3,2.6,-1.1
i,0.678,-4.7,-2.9,CS(=O)(=O)c1ccc2nc(NC(=O)c3ccc(N4CCCC4=O)cc3)sc2c1,-18.3,5.6,x
i,0.68,0.7,-6.1,CCC1(O)CC(C(=O)OC)=NN1C(=O)c1ccccc1 (centres undefined),0.9,0.1,0.6
i,0.659,-1.3,0.6,CC(=O)O[C@]1(C(C)=O)CC[C@H]2[C@@H]3C=CC4=CC(=O)C=C[C@]4(C)[C@H]3CC[C@@]21C,2.2,1.3,-0.3
x,0.712,-2.4,1.4,COc1ccccc1-n1nc(C(=O)NCc2ccco2)c2ccccc2c1=O,1.0,2.0,x
x,0.699,21.6,1.1,O=C(N1CCCC1)C12CCC3CC(CC(C3)C1)C2,-0.1,1.0,8.0
x,0.732,-11.7,-1.1,Cc1ccnc(NC(=O)c2ccccc2NC(=O)C(C)(C)C)c1,1.1,0.9,0.0
x,0.69,1.6,-2.9,N=C1C(c2ccccc2)=C(O)CN1c1ccccc1,6.7,2.7,9.7
i,0.754,-0.9,-1.6,CCOC(=O)c1c(NC(=O)CN2C(=O)NC3(CCC(CC)CC3)C2=O)sc(C)c1-c1ccc(C)cc1 (centres undefined),-0.9,-0.7,-1.4
i,x,-3.0,x,O=C(C1CCCCC1C(=O)N1CCCCC1)N1CCCCC1 (centres undefined),x,1.1,x
i,0.691,7.8,-7.2,COc1ccc(N(CC(=O)N2CCN(c3cc(C)ccc3C)CC2)S(=O)(=O)c2c(C)noc2C)cc1,4.3,-0.7,-4.5
